# Env fusion inh: HIV envelope-mediated fusion inhibition; HeLa-JRFL Env/CEM21 cell fusion, luciferase; inhibition, % at 12.3 µM; 360,000 tested, 1.1% active;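 active = mean replicate inhibition score of at least 50 and every replicate individually at or above 50; inconclusive = only one of the two criteria met; inactive = mean below 50 and not all replicates reaching 50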;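 note: 0% = plate neutral controls and 100% = maraviroc near 300 nM; one replicate is shown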
# PABP polyA inh: PABP-poly(A) binding inhibition | inhibition, % at 35 µM | PABP-poly(A) RNA binding, fluorescence polarization | 290,000 tested, 1% active;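 active = 50% or more with normal probe brightness, or confirmed in later tests; inconclusive = above 50% with abnormal brightness, or retests that disagree; inactive = below 50% or failed in later tests; about a fifth of its hits are not listed in these tables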;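 note: calls also rest on retests at 20 µM and on dose response follow-up; controls were probe without protein and protein plus probe with vehicle; some compounds called inactive have numbers as strong as hits; many hits fall short of the cut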
# Target sequence (P11940 whole entry, looked up): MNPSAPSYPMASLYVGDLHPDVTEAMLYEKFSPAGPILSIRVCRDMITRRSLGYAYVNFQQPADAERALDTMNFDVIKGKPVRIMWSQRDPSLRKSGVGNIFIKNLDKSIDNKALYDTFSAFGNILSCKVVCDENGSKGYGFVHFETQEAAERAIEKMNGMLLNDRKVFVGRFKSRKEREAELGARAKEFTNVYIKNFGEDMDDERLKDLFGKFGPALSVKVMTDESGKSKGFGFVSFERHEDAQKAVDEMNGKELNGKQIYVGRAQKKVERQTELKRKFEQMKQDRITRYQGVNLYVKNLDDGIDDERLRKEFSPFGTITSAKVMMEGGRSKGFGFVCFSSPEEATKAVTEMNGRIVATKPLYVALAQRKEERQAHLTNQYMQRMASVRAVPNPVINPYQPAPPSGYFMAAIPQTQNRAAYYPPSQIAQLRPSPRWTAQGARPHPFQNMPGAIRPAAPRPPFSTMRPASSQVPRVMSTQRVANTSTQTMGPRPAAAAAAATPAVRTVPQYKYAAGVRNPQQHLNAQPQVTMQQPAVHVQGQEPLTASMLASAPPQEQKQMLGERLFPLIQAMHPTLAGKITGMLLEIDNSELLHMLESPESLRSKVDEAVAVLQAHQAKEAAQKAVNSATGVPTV
# eIF4H FP inh: inhibitors of RNA binding by human eIF4H | Q15056 | eIF4H fluorescence polarization binding assay | inhibition, % at 35 µM | 290,000 tested, 0.94% active;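 active = 50% or more with normal probe brightness, or confirmed in later tests; inconclusive = above 50% with abnormal brightness, or retests that disagree; inactive = below 50% or failed in later tests; about a fifth of its hits are not listed in these tables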;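 note: calls also rest on retests at 20 µM and on dose response follow-up; 0% = protein and probe with vehicle and 100% = probe without protein; strong numbers were not always called active; many hits fall short of the cut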
# MT1-MMP act inh: blocks activation of human MT1-MMP | P50281 | HT1080 RFP-PRO-GFP cells, GFP/RFP ratio fluorescence, overnight; percent of plate control window, DMSO zero | GFP/RFP ratio change, % at 20 µM | 360,000 tested, 0.061% active | AID 651647;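 active = GFP/RFP ratio change of at least 30% with cell ATP level not reduced by more than half and red fluorescence within 50% of control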; note: strong numbers were not always called active
#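 Compound: 20 µM single dose, 1% DMSO / System: HT1080 RFP-PRO-GFP cells / Controls: DMSO and RFP-L50D-GFP cell wells / Read-out basis: GFP/RFP fluorescence ratio / Schedule: overnight compound exposure at 37 °C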
# Yeast UUG start: modulators of start codon recognition fidelity in yeast; S. cerevisiae UUG-firefly luciferase reporter, luminescence/redox ratio; activity score, % at 18.7 µM; 350,000 tested, 0.13% active; AID 602363;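 active = replicate mean at a twofold rise or more, about +100% in these data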;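 note: firefly luciferase made from a UUG start codon reports start codon fidelity; reporter light over untreated wells divided by growth signal over untreated wells; some hits fall short of that in this replicate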
# CSC inhib: cancer stem cell inhibition. cancer stem cell-like cells viability, luminescence. inhibition, % at 7.5 µM. 300,000 tested, 1.1% active. AID 2717;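 active = mean at 75% or more and at least half the replicates too; inconclusive = mean and replicates disagree; tested in HMLE shEcad cells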;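 note: 0% = median of negative and 100% = median of positive control wells; the first replicate is given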
# Rce1 inh: blocks yeast Ras-converting enzyme; Q03530; yeast membranes, quenched prenylated peptide cleavage fluorescence; calls only; 290,000 tested, 0.27% active; AID 2563;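 active = fall in fluorescence gain of 50% or more versus controls, with final raw signal at or below 3038400; inconclusive = same 50% fall but final raw signal above 3038400; inactive = fall in fluorescence gain under 50%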;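 note: plate controls were neutral control wells for no effect and wells lacking membranes for full effect; tested at 10 µM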
# Target sequence (Q03530 whole entry, looked up): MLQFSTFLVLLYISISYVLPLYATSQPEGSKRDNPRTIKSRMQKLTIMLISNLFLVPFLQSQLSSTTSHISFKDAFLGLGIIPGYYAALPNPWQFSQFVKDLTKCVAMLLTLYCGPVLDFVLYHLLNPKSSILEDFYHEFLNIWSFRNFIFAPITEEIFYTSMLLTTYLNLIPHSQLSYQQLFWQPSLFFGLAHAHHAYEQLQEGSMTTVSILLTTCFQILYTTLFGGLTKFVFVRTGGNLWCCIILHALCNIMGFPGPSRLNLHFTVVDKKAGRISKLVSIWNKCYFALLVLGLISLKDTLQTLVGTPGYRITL
# eIF4H FP inh retest: second read-out of eIF4H FP inh, no call of its own (marks repeat the call); inhibition, %; compound at 20 µM; confirmation average;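 mean of two retest wells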
# PABP polyA inh retest: further read-out of PABP polyA inh, marked with its call; inhibition, %; compound at 20 µM; confirmation repeats;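 mean of two retest wells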
# MT1-MMP act inh RFP: further read-out of MT1-MMP act inh, marked with its call; RFP signal change, %; measured here: RFP expression control read;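 0 = vehicle wells; hits needed this value within 50% of zero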
# Active calls of the source: *; i = inactive; ? = inconclusive; . = not tested or not shown.
SMILES,Env fusion inh,PABP polyA inh,eIF4H FP inh,MT1-MMP act inh,MT1-MMP act inh RFP,Yeast UUG start,CSC inhib,Rce1 inh,others
COCCNC(=O)C1CCCN(C(=O)c2ccc(C(F)(F)F)nc2C)CC1 (stereo not drawn),-9,.,.,-3,5,-5,.,.,
CC(C)c1ccc2c(c1)[C@H]1OCC[C@H]1[C@@H](c1cccs1)N2,59*,0,5,-9,-11,.,50,i,
CCCC1C(C#N)=C(N)Oc2cc(C)n(C)c(=O)c21 (stereo not drawn),-22,7,1,-10,-14,-9,.,i,
Cc1ccccc1N1C(=O)c2ccccc2NC1c1ccncc1 (stereo not drawn),.,3,1,1,6,-4,.,i,
O=C(c1ccco1)N(Cc1cccc([N+](=O)[O-])c1)c1ccc(Br)cc1,9,-5,0,-1,-6,.,-3,i,
O=C(Nc1ccc(S(=O)(=O)NCc2ccccc2)cc1)c1ccccc1[N+](=O)[O-],14,1,0,6,-2,.,11,i,
COc1ccc(C2=NN(c3nc(-c4ccccc4)c(CC(=O)O)s3)C(c3ccco3)C2)cc1 (stereo not drawn),1,-6,20,-14,4,-9,12,.,
COc1ccc(C(=O)c2ccc(CC#N)s2)cc1,.,-6,-10,5,15,2,.,i,
O=C(CN1CCCCC1)Nc1cccc2c1OCO2,.,0,-9,2,1,-15,1,i,
CC(C)=CCN1CCN(Cc2cc(F)ccc2-n2nc(C)cc2C)CC1CCO (stereo not drawn),-2,6,4,2,0,-10,-16,i,
CCN1CCCC1CNC(=S)Nc1ccc(C(C)=O)cc1 (stereo not drawn),-32,-2,-2,4,8,.,1,i,
Cc1cccn2c(=O)c3cc(C(=O)NCC4CCCO4)c(=N)n(CCN4CCOCC4)c3nc12 (stereo not drawn),-23,-6,-5,-1,4,-9,-2,?,
Cc1ccc(-c2noc(CCC(=O)NCc3ccc4c(c3)OCO4)n2)cc1,.,0,-6,4,0,-23,9,i,
O=[N+]([O-])c1ccc(S(=O)(=O)N/N=C/c2ccc3c(c2)OCO3)cc1,11,3,-6,0,5,-12,-5,i,
CC(C)N(C1=N/C(=C\c2ccco2)C(=O)N1c1ccccc1)C(C)C,.,116,116,-12,4,14,4,i,eIF4H FP inh retest=0;PABP polyA inh retest=14
Cc1ccc(NC(=O)C2CCN(S(=O)(=O)c3c(C)n[nH]c3C)CC2)c(C)c1,13,0,1,5,0,-13,15,i,
CCOC(=O)N1CCN(C(=O)c2ccc3c(=O)n(CC4CCCO4)c(=S)[nH]c3c2)CC1 (stereo not drawn),-61,-3,-4,4,2,-11,-9,i,
CCn1c(CNC(=O)c2ccco2)nnc1SCC(=O)Nc1ccc(Br)cc1F,-42,12,-4,-3,-6,-27,-17,i,
O=C(c1cc2ccccc2o1)N1CCN(S(=O)(=O)/C=C/c2ccccc2)CC1,-1,10,-4,2,-12,7,-7,i,
Nc1nonc1C(=O)NCCNc1ncccc1[N+](=O)[O-],-9,41,5,-7,-2,.,-10,i,
Cc1cc(C)n(-c2nc3ccccc3nc2N2CCCCCC2)n1,-31,3,-1,-7,-5,-10,-2,i,
CC1CC(C)CN(CCOc2cccc3ccccc23)C1 (stereo not drawn),7,3,0,3,5,-17,17,i,
CC(=O)c1ccc(NC(=O)C(C)OC(=O)/C=C/c2ccco2)cc1 (stereo not drawn),-353,.,.,1,-3,-2,.,.,
O=C(c1cc(=O)[nH]c2ccccc12)N1CC=C(c2ccccc2)CC1,-7,.,.,3,5,-9,-3,i,
O=C(Nc1ccc2oc(-c3ccccc3F)nc2c1)c1cncc(Br)c1,-35,-14,-2,2,-2,-12,0,i,
COc1ccc(OC)c(NC(=O)CSC2=NN3CCCC(=O)N=C3S2)c1,5,4,13,1,-5,32,.,i,
N#C/C(=N\O)c1nc2ccccc2s1,-16,7,3,-5,-4,-11,9,.,
CC(NC(=O)COC(=O)COc1cccc2c1OC(C)(C)C2)c1ccccc1 (stereo not drawn),-4,1,-10,-2,1,5,-7,i,
CN(C)c1cccc(C(=O)Nc2nnc(Cc3ccccc3)s2)c1,-12,7,-11,4,3,-16,30,i,
COc1cc(-n2c(C)nc3cc(C(=O)O)ccc32)cc(OC)c1OC,13,19,8,1,1,-17,-7,i,
CCC(C)[C@H](NC(=O)Nc1ccc(S(N)(=O)=O)cc1)C(=O)OC (stereo partly drawn),1,6,-9,3,4,.,-7,i,
CSc1ncccc1C(=O)Nc1ccc(S(=O)(=O)Nc2nccs2)cc1,.,5,-5,6,6,.,5,i,
COc1c2c(nc3occc13)C(CCC(C)(C)O)(OC)C(O)CC2 (stereo not drawn),-20,-1,6,.,.,-15,13,i,
COc1ccc(N2CCN(C(=O)CSc3nnc4nc(C)cc(C)n34)CC2)cc1,.,.,.,-1,-3,-25,-2,i,
COc1ccc(-c2onc3ccc(Cl)cc23)cc1,-49,68*,51*,-5,-2,-20,-1,i,
CC1CCCN(CC(=O)Nc2ccc(S(=O)(=O)N3CCCCCC3)cc2)C1 (stereo not drawn),26,4,7,1,-4,-7,59,i,
c1nnc2c3c4c(sc3ncn12)CCCC4,.,-2,-13,.,.,.,.,i,
Cc1cccc(NC(=O)c2sccc2-n2cccc2)c1C,.,-1,-2,-1,-5,18,1,i,
CCC(NC(=O)CSc1nnnn1C1CC1)c1ccc(Br)cc1 (stereo not drawn),.,.,.,-2,1,-5,14,.,
Cc1nn2c3cc(N4CCOCC4)ccc3nc2c2ccccc12,-406,.,.,.,.,.,-7,i,
Cc1ccc(NC(=O)N2CCC(NC(=O)c3cccc(C)c3)CC2)cc1,2,28,14,-7,-2,-6,-11,i,
CC(=O)c1cccc(NC(=O)NC2CC(=O)N(c3ccc4c(c3)OCCO4)C2)c1 (stereo not drawn),6,.,.,-1,-1,10,-10,i,
O=C(CN1CCC(NC(=O)c2ccccc2Cl)CC1)NCc1ccco1,4,-1,0,-1,1,2,12,i,
Cc1ccc(S(=O)(=O)Nc2nc3ccccc3s2)cc1,1,1,2,-2,1,-8,-5,i,
C(=N\N1CCOCC1)/c1cn(-c2ccccc2)nc1-c1ccccc1,-8,9,3,-3,0,0,-7,i,
CCCCCNC(=O)c1ccc2c(=O)n(CCOC)c(=O)[nH]c2c1,-70,2,-3,0,1,-1,-4,i,
Cc1ccsc1C(=O)NCCc1nnc2ccccn12,-20,2,-4,-1,2,-4,-11,i,
COc1ccc(C(=O)SC2=NCCS2)cc1,.,-2,-6,5,3,-5,2,i,
Cc1ccc(N2C(=O)N3[C@H](c4ccc(Cl)cc4)[C@@H]4C(=O)N(C5CCCCC5)C(=O)[C@@H]4[C@]3(Cc3ccccc3)C2=O)cc1,43,-2,-10,-3,-9,-20,-5,i,
Cc1ccc2c(c1)[C@H]1[C@H](CO2)[C@H](c2ccccc2)[C@]2(C)C(=O)Nc3ccccc3C(=O)N12,27,.,.,-13,-16,-19,.,.,
CN(C)c1ccc2c(c1)OC(N)=C(C#N)C2c1cccc(F)c1 (stereo not drawn),.,?,?,-306,-5,-16,.,i,
CN1CCc2nc(SCC(=O)Nc3ccc(F)cc3)c(C#N)cc2C1,.,4,9,.,.,.,-9,i,
COc1ccccc1NC(=O)c1c(N=Cc2ccccc2O)cnn1C,.,9,-3,.,.,.,-3,i,
COC(=O)c1ccc(NC(=O)C(=O)N2CCCC2)cc1,.,8,0,-3,-3,-22,.,i,
O=C(Cc1cccc2ccccc12)N1CCCc2ccccc21,-29,6,-9,-12,-1,0,16,i,
CC(C)(C)OC(=O)C[C@H]1C/C=C\C[C@H](CC(=O)N[C@H](CO)Cc2ccccc2)C(=O)N2CCC[C@@H]2COC1=O,17,.,.,4,10,35,.,.,
Cc1cc(C)n(-c2nc3ccccc3c3nc(C)nn23)n1,5,-15,-5,-2,2,0,-12,i,
O=C(CNCc1ccco1)Nc1ccccc1-n1cccc1,.,-4,0,2,8,.,2,.,
CC(C)Cc1ccc(CN2CCCC(NC(=O)CCN3CCOCC3)C2)cc1 (stereo not drawn),13,-8,-6,5,1,13,-14,i,
CCOC(=O)C1CCCN(C(=O)C2CCN(S(=O)(=O)N3CCC4(CC3)OCCO4)CC2)C1 (stereo not drawn),.,1,-17,2,-1,-17,-2,i,
# The list goes on.
SMILES,Env fusion inh,PABP polyA inh,eIF4H FP inh,MT1-MMP act inh,MT1-MMP act inh RFP,Yeast UUG start,CSC inhib,Rce1 inh,others
CCCn1nnc2sc3c(c2c1=O)CCC(C)C3 (stereo not drawn),.,-9,0,0,5,-15,-7,i,
COC(=O)NNC(=O)c1ccccc1OC,8,4,4,-1,2,.,.,i,
Cc1ccsc1/C=N/NC(=O)c1ccncc1,5,13,-2,1,4,.,5,i,
O=C(c1cccnc1)N1c2ccccc2Sc2ccccc21,21,0,-5,-2,-3,.,-1,i,
O=C(NNC(=O)c1ccc(-n2cncn2)c([N+](=O)[O-])c1)c1ccccc1,17,.,.,0,6,-7,-5,.,
CCC(=O)OCCNc1nc(-c2ccccc2)nc2ccccc12,-5,12,-2,4,3,-11,-8,i,
CCOC(=O)c1sc(NC(=O)c2ccc(S(=O)(=O)N3CCCCC3)cc2)nc1-c1ccccc1,22,4,10,-22,-27,5,42,i,
Cc1cc(C2N=C(N)Nc3nc4ccccc4n32)c(C)n1-c1ccccc1Cl (stereo not drawn),.,-4,-10,-2,-4,-16,11,i,
CCOC(=O)C(C(=O)OCC)C(Nc1ccc(Br)cc1)c1ccccc1 (stereo not drawn),-124,1,-7,21,-5,-15,75*,i,
Cc1ccc(OCC(=O)NCCNC(=O)c2cccnc2)cc1C,3,1,1,1,2,-14,.,i,

# Ordered by molecular weight (low to high): some entries from above.
SMILES,Env fusion inh,PABP polyA inh,eIF4H FP inh,MT1-MMP act inh,MT1-MMP act inh RFP,Yeast UUG start,CSC inhib,Rce1 inh,others
COC(=O)NNC(=O)c1ccccc1OC,8,4,4,-1,2,.,.,i,
Cc1ccsc1/C=N/NC(=O)c1ccncc1,5,13,-2,1,4,.,5,i,
CCCn1nnc2sc3c(c2c1=O)CCC(C)C3 (stereo not drawn),.,-9,0,0,5,-15,-7,i,
Cc1cc(C)n(-c2nc3ccccc3c3nc(C)nn23)n1,5,-15,-5,-2,2,0,-12,i,
O=C(CNCc1ccco1)Nc1ccccc1-n1cccc1,.,-4,0,2,8,.,2,.,
CCC(=O)OCCNc1nc(-c2ccccc2)nc2ccccc12,-5,12,-2,4,3,-11,-8,i,
Cc1ccc(OCC(=O)NCCNC(=O)c2cccnc2)cc1C,3,1,1,1,2,-14,.,i,
CC(C)Cc1ccc(CN2CCCC(NC(=O)CCN3CCOCC3)C2)cc1 (stereo not drawn),13,-8,-6,5,1,13,-14,i,
CCOC(=O)C(C(=O)OCC)C(Nc1ccc(Br)cc1)c1ccccc1 (stereo not drawn),-124,1,-7,21,-5,-15,75*,i,
CCOC(=O)C1CCCN(C(=O)C2CCN(S(=O)(=O)N3CCC4(CC3)OCCO4)CC2)C1 (stereo not drawn),.,1,-17,2,-1,-17,-2,i,
CCOC(=O)c1sc(NC(=O)c2ccc(S(=O)(=O)N3CCCCC3)cc2)nc1-c1ccccc1,22,4,10,-22,-27,5,42,i,

# Screens as filed in PubChem.

# Only part of the results is shown. The share of hits here may be higher or lower than overall.
